# Screens: PubChem BioAssay, SRMLSC
# H5N1 CPE: MDCK cell protection from H5N1 avian flu. cytopathic effect, luminescence, 72 h; hits give high values; no value below 0 was filed and about half of the inactive calls have no number; reference of the scale not given here. inhibition, % at 50 µM. 96,000 tested, 0.07% active; in the data active means inhibition above about 25%
# * = called active by the depositor; i = inactive. An excerpt (hit frequency here may not be typical).
no.	SMILES	H5N1 CPE
1	O=C(O)CCC(=O)Nc1ccc(Cc2ccc(NC(=O)CCC(=O)O)cc2)cc1	0.1
2	COc1ccc(OC)c(NC(=O)Nc2cccc(Cn3cccn3)c2)c1	i
3	Cc1ccc(C)c(C(=O)n2cnnc2N)c1	0.5
4	CS(=O)(=O)N(CCc1ccccc1)CC(=O)NCc1ccncc1	1.0
5	C/C(Cl)=C\Cn1c(=O)c2c(nc3n2CCS3)n(C)c1=O	i
6	CCn1cc([N+](=O)[O-])c(C(=O)N2CCCC2)n1	i
7	CCCC(C(=O)OCC)P(=O)(c1ccccc1)c1ccccc1 (stereo not drawn)	0.5
8	COc1ccc(Nc2nc(N)nc(CN(C)C3CCCCC3)n2)cc1	i
9	COc1ccccc1NCCC(=O)OCC(=O)Nc1ccc(Cl)cn1	0.7
10	CCN(CC)CC#CC(C)OCOCC#CCOC (stereo not drawn)	0.6
11	CC(=O)NCc1nc2ccccc2n1C(C)C	i
12	O=c1[nH]c(-c2ccncc2)nc2ccccc12	0.2
13	Cc1cc(C(C)(C)C)cc(C)c1COC(=O)C1CCC(=O)N1 (stereo not drawn)	2.4
14	Nc1nc(-c2ccco2)nc(N2CCCCC2)n1	14
15	CCOc1ccc(N=C2NC(=O)S/C2=C\c2ccc(O)cc2)cc1	1.7
16	CCN1CCN(C(=S)c2ccc(Br)cc2)CC1	1.1
17	CCCCCC1CCC(C(=O)NNC(=S)NCC)CC1 (stereo not drawn)	0.2
18	C=CCNC(=O)/C(=C\c1ccc2c(c1)OCO2)NC(=O)c1ccc(Br)cc1	0.6
19	O=C(NCCN1CCC(Cc2ccccc2)CC1)C1CCCN(S(=O)(=O)c2cnc[nH]2)C1 (stereo not drawn)	0.9
20	COCCN(CC(=O)NCc1ccc(F)cc1)C(=O)CCC(=O)Nc1nccs1	0.2

# In the list so far, 8 have four or more nitrogen atoms.
no.	SMILES	H5N1 CPE
2	COc1ccc(OC)c(NC(=O)Nc2cccc(Cn3cccn3)c2)c1	i
3	Cc1ccc(C)c(C(=O)n2cnnc2N)c1	0.5
5	C/C(Cl)=C\Cn1c(=O)c2c(nc3n2CCS3)n(C)c1=O	i
6	CCn1cc([N+](=O)[O-])c(C(=O)N2CCCC2)n1	i
8	COc1ccc(Nc2nc(N)nc(CN(C)C3CCCCC3)n2)cc1	i
14	Nc1nc(-c2ccco2)nc(N2CCCCC2)n1	14
19	O=C(NCCN1CCC(Cc2ccccc2)CC1)C1CCCN(S(=O)(=O)c2cnc[nH]2)C1 (stereo not drawn)	0.9
20	COCCN(CC(=O)NCc1ccc(F)cc1)C(=O)CCC(=O)Nc1nccs1	0.2

# (listing goes on)
no.	SMILES	H5N1 CPE
21	CC1CCN(C(=O)Nc2ccc3nsnc3c2)CC1	i
22	CC(=O)c1ccc(N2CCN(CCC#N)CC2)c(F)c1	i
23	CN(C)CCNC(=O)c1cc(Br)ccc1Cl	2.3
24	C=CCOc1ccccc1CNCc1cccnc1	0.5
25	Cc1ccc(C)c(S(=O)(=O)NCCOC(=O)Nc2sc(=S)n(C)c2C)c1	0.4
26	Cc1cccc(C(=O)N2CCN(Cc3ccc4c(c3)OCO4)CC2)c1	1.7
27	CCC(=O)Nc1ccc2c(c1)C(=O)N(C)C2=O	i
28	CN(c1ccccc1)S(=O)(=O)c1cccc(C(=O)N2CCN(c3ccccn3)CC2)c1	0.5
29	Cc1csc(=Nc2c(C)n(C)n(-c3ccccc3)c2=O)n1Cc1ccccc1	i
30	COc1ccc(CN2CCN(S(=O)(=O)c3ccc(NC(C)=O)cc3)CC2)cc1OC	3.4
31	COc1ccc(C(=O)N2CCN(S(=O)(=O)c3cc(Cl)ccc3OC)CC2)cc1	i
32	O=C(NC(=S)NCCN1CCOCC1)c1cccc(Cl)c1	1.3
33	CCOc1ccccc1C1CC(=O)Nc2c1c(=O)n(C)c(=O)n2C (stereo not drawn)	0.2
34	O=C(CN(C1CCCCC1)S(=O)(=O)c1ccc(F)cc1)NCc1ccncc1	i
35	O=C(C1CCCN(S(=O)(=O)Cc2ccccc2)C1)N1CCC(Cc2ccccc2)CC1 (stereo not drawn)	i
36	CCOC(=O)C1CCCN(S(=O)(=O)c2cc(OCC(=O)NC3CCCCC3)c(C)cc2Cl)C1 (stereo not drawn)	0.1
37	O=C(Nc1cnn(Cc2ccc(Cl)cc2Cl)c1)c1cc(-c2cccs2)on1	i
38	O=C(NCc1cccnc1)/C(=C/c1ccc(-c2ccc(Cl)cc2)o1)S(=O)(=O)c1ccccc1	i
39	CCN(CC)S(=O)(=O)c1cc(-c2nn(C)c(=O)c3ccccc23)ccc1C	0.2
40	COCCN(CC(=O)Nc1ccccc1C)S(=O)(=O)c1ccc(S(=O)(=O)N2CCCC2)cc1	0.6
41	COc1ccc(-c2nnc3sc(C(C)N4C(=O)c5ccccc5C4=O)nn23)cc1 (stereo not drawn)	1.9
42	CC1CCCCC1NS(=O)(=O)c1ccc(S(=O)(=O)NCc2ccncc2)cc1 (stereo not drawn)	1.2
43	Cc1oc(-c2ccccc2Cl)nc1CS(=O)CC(=O)NCc1cccs1 (stereo not drawn)	1.2
44	CCC1(CC)Cc2ccccc2C(N)=C1C#N	i
45	O=C(NCc1ccccc1)c1cnc2n(c1=O)CCS2	1.2
46	O=S(=O)(c1ccc(S(=O)(=O)N2CCN(C/C=C/c3ccccc3)CC2)cc1)N1CCCC1	i
47	CCC(C)Sc1nc2c(c(=O)[nH]c(=O)n2C)n1CCc1ccccc1 (stereo not drawn)	3.9
48	O=C(O)CCn1[nH]c(=O)c2ccccc2c1=O	0.7
49	COc1cc(C)nc(N(Cc2ccccc2)S(=O)(=O)c2ccccc2)n1	1.1
50	O=C1CC(N(O)c2ccccc2)C(=O)N1Cc1ccccc1 (stereo not drawn)	0.3
51	CC(=O)Nc1cccc(Cn2cccn2)c1	i
52	CCCn1c(SCc2ccc(Cl)cc2)nc2c1c(=O)[nH]c(=O)n2C	i
53	OC(CNCC1CCCO1)Cn1c2ccccc2c2ccccc21 (stereo not drawn)	i
54	COc1ccc(OC)c(C(O)c2nc3ccccc3n2C(C)C)c1 (stereo not drawn)	1.1
55	CCC(CC)C(=O)Nc1ccc(Cl)c(Cl)c1	i
56	CCOC(=O)C1=C(C)NC(SCC(=O)O)=C(C#N)C1c1ccco1 (stereo not drawn)	i
57	O=C1CCCN1c1ccc(S(=O)(=O)NCc2ccco2)cc1	0.2
58	CCOC(=O)Cc1nnc(NC(=O)C(CC)Sc2nncn2C)s1 (stereo not drawn)	1.5
59	O=C(O)[C@H](Cc1ccccc1)NC(=O)N1CCOCC1	0.6
60	CN(C)CCCN=Cc1c(O)n(CCc2ccc(F)cc2)c(=O)[nH]c1=O	1.2
61	CCOC(=O)C1CCN(S(=O)(=O)c2ccc(NC(=O)OC)cc2)CC1	1.7
62	CCOC(=O)Nc1cccc(Nc2ccccc2)c1	i
63	CS(=O)(=O)N1CCN(C2CCN(Cc3ccccc3)CC2)CC1	0.6
64	CC(CN1CCN(C)CC1)OC(=O)c1ccccc1Cl (stereo not drawn)	i
65	CCC(C)NC(=O)C(Cc1ccccc1)n1cccc1 (stereo not drawn)	0.7
66	C=CCn1cnc2scc(-c3ccc(C)cc3)c2c1=O	i
67	O=C1c2ccc3c4c(ccc(c24)C(=O)N1c1ccc2ccccc2c1)CC3	i
68	O=C(CN1CCCCC1)Nc1cc(Cl)ccc1Cl	0.4
69	COc1ccc(CC(=O)NCc2ccco2)cc1OC	0.1
70	COc1ccccc1NC(=O)CN1C(=O)C2(OCCCO2)c2ccccc21	0.4
71	CC1Cc2ccccc2N1C(=O)CCNS(=O)(=O)c1cccc2nsnc12 (stereo not drawn)	1.1
72	O=C(Cc1c(F)cccc1Cl)NCCCn1ccnc1	0.7
73	CCOc1cc2[nH]c(=O)n(CCCCC(=O)NCc3ccco3)c(=O)c2cc1OCC	i
74	CC1CCCCN1C(=O)CSc1nc2ccccc2n1CC(=O)N1CCc2ccccc21 (stereo not drawn)	i
75	COc1ccc(-c2noc(CCC(=O)Nc3cccc(C)c3)n2)cc1	0.4
76	Cc1ccc(-c2noc(CCC(=O)NCCc3ccccc3Cl)n2)cc1	i
77	C/C(=N/NS(=O)(=O)c1ccc(Cl)cc1)c1cccc(NC(=O)c2ccc(Cl)cc2Cl)c1	1.7
78	COC(=O)c1cc(NC(=O)c2ccccc2)c(=O)oc1C/C=N\OCc1ccc(Cl)cc1Cl	i
79	COC(=O)c1ccccc1NC(=O)c1ccc(COc2cccc3ccccc23)o1	i
80	Cn1cccc1C(=O)c1ccc(Cl)cc1Cl	0.8

# New compounds follow:
no.	SMILES	H5N1 CPE
81	O=C(Nc1ccccc1C(=O)N1CCCC1)c1cccc(S(=O)(=O)N2CCCCC2)c1	0.9
82	COc1ccc2c(c1OC)C(=O)N1N=C(c3ccc(O)cc3)CC21 (stereo not drawn)	1.9
83	CC(=O)C1C(c2cn(-c3ccccc3)nc2-c2cccs2)NC(=O)NC1(O)C(F)(F)F (stereo not drawn)	0.7
84	O=C(Nc1ccc(Cl)c(Cl)c1)OCc1cccnc1	i
85	Cc1ccc(C(=O)NCC(=O)N2CCN(c3ncccn3)CC2)s1	0.5
86	Cc1ccc2cc3cc(C(=O)NCCCN4CCc5ccccc5C4)oc3nc2c1	i
87	O=S(=O)(Cc1ccccc1)N1CCN(C2Cc3ccccc3C2)CC1	0.1
88	COc1cccc(NC(=O)C2CCCN2C(=O)Nc2ccccc2F)c1 (stereo not drawn)	i
89	CC1CN(C(=O)c2cc3c(s2)CCC3)CC(C)O1 (stereo not drawn)	0.1
90	CCN(CC)S(=O)(=O)c1ccc(NC(=O)C2CCCO2)cc1 (stereo not drawn)	i
91	O=C(c1ccco1)N1CCN(Cc2nnnn2CCc2ccccc2)CC1	2.1
92	N#CC1=C(N)n2c(s/c(=C\c3ccco3)c2=O)=C(C#N)C1c1ccco1 (stereo not drawn)	0.3
93	CN(C)S(=O)(=O)c1ccc(NC(=O)c2ccc(Br)o2)cc1	i
94	CC(C)Cc1cc(C(=O)NCCc2ccccc2)no1	i
95	COC(=O)C1=C(C)NC(=O)NC1c1ccc(OCC(=O)N2CCCCC2)cc1 (stereo not drawn)	0.6
96	CCOC(=O)c1cc2n(c1/N=C/N(C)C)-c1ccccc1C2=O	1.1
97	O=C(CSc1nc(Cc2ccccc2)nc2ccccc12)Nc1nc2c(s1)CCCC2	i
98	CC(C)(C)OC(=O)NCCCC(CCCNC(=O)OC(C)(C)C)C(=O)O	0.8
99	Cc1nc(-c2ccccc2)sc1-c1nc(-c2ccncc2)ncc1S(=O)(=O)c1ccccc1	0.7
100	CCOC(=O)c1c(NC(=O)c2ccccc2)sc2c(O)c(CN(CC)CC)ccc12	i
101	COc1ccc(C(=O)Nc2cccc(/C(C)=N/NC(=O)c3ccc([N+](=O)[O-])cc3)c2)cc1OC	0.1
102	CC(C)CC(NC(=O)C1CCCCC1)C(=O)NCc1ccccn1 (stereo not drawn)	0.1
103	Cn1nc(C(=O)NCc2ccc(F)cc2)c2ccccc2c1=O	1.9
104	Clc1ccc(SCc2nc3ccccc3[nH]2)cc1	1.1
105	CCc1nn(CC(=O)NCCN2CCN(C)CC2)c(=O)c2cc3occc3n12	0.3
106	O=C(Cc1coc(-c2ccc(F)cc2)n1)NCc1ccccc1	0.4
107	COc1ccc(CSc2nnc(Cc3sc(-c4ccccc4)nc3-c3ccccc3)o2)cc1	1.5
108	Cc1ccc(C(C(=O)NCc2ccco2)N(C(=O)CNC(=O)c2cccs2)c2ccc(C)cc2)cc1 (stereo not drawn)	i
109	COC(=O)c1ccc(NC(=O)CN2C(=O)CNC2=O)cc1	i
110	O=C1CN(C(=O)CSc2nnnn2-c2ccc(Cl)cc2)c2ccccc2N1	0.8
111	CCN(c1cccc(C)c1)S(=O)(=O)c1cnc[nH]1	0.6
112	C=CCn1c(SCC(=O)Nc2ccc3c(c2)OCCO3)nnc1-c1ccco1	i
113	O=C(CN(CCCN1CCOCC1)C(=O)Cn1nnc(-c2ccc(F)cc2)n1)NC1CCCCC1	i
114	CCOC(=O)c1cnc(SC)nc1Oc1cccc(NC(=O)c2ccc(C)cc2)c1	i
115	COc1ccc(C(=O)/C=C/c2ccc(F)cc2)c(OC(=O)c2ccc([N+](=O)[O-])cc2)c1	0.9
116	Cn1c(CN2CCOCC2)nnc1SCC(=O)Nc1ccc2c(c1)OCCO2	i
117	CC1=C(C#N)CCC(=O)N1Cc1c(C)cc(C)cc1C	i
118	COc1cc(-c2nc3cnccn3c2Nc2ccc(C(C)C)cc2)ccc1O	i
119	COC(=O)C1=C(C(=O)c2ccc(C)cc2)C(c2ccc(OC)c(OC)c2)n2nnnc2N1 (stereo not drawn)	0.6
120	COCCCNC(NC(=O)c1ccc(Cl)cc1)C(Cl)(Cl)Cl (stereo not drawn)	i

# Compounds shown so far that contain a tert-butyl group:
no.	SMILES	H5N1 CPE
13	Cc1cc(C(C)(C)C)cc(C)c1COC(=O)C1CCC(=O)N1 (stereo not drawn)	2.4
98	CC(C)(C)OC(=O)NCCCC(CCCNC(=O)OC(C)(C)C)C(=O)O	0.8

# More entries
no.	SMILES	H5N1 CPE
121	O=S(=O)(c1ccc(N2CCCC2)cc1)C(F)(F)F	1.0
122	O=C(CN1CCC(n2nnc3cc(C(F)(F)F)ccc32)CC1)N1CCc2ccccc21	0.1
123	O=C(Cn1nc(-c2ccccc2)ccc1=O)NCC1COCCO1 (stereo not drawn)	i
124	CCCP(=O)(CC(=O)O)c1ccccc1 (stereo not drawn)	0.3
125	C=CCn1c(COc2cccc3cccnc23)nnc1SCC(=O)OC	i
126	O=[N+]([O-])c1ccc(Cl)c(/C=N/N2CCN(Cc3ccccc3)CC2)c1	0.2
127	N#Cc1c(NCc2ccccc2)ccnc1NCc1cccnc1	4.1
128	O=C(Cn1c(CC(=O)N2CCOCC2)nc2ccccc21)Nc1ccc2c(c1)OC(F)(F)O2	i
129	CC(C)C(=O)Nc1c2c(nc3ccccc13)N(C)CC2	0.9
130	O=C(Nc1cnn(Cc2ccc(F)cc2)c1)c1cc2nc(-c3ccco3)cc(C(F)(F)F)n2n1	0.9
131	Cc1ccc(NC(=O)N(Cc2ccco2)Cc2cc3cc(C)cc(C)c3nc2Cl)cc1	0.6
132	Cc1ccc2cc(C#N)c(SCC(=O)N3CCCc4ccccc43)nc2c1C	6.3
133	CCOC(=O)C1=C(O)/C(=C/c2cc(OC)c(OC)c(OC)c2)SC1=Nc1ccc(OC)cc1	i
